# Source: PubChem BioAssay (National Center for Advancing Translational Sciences (NCATS))
# GLA inh pH 4.5 = qHTS Assay for Inhibitors of Human alpha-Galactosidase at pH 4.5; activity change, negative = inhibition, % at 105 µM; purified enzyme, 4-MU-alpha-Gal fluorescence, pH 4.5; 230,000 tested, under 10 active; AID 1467, 2008; Alpha-galactosidase A (Homo sapiens), P06280; inconclusive = small, poorly fitted or top-dose-only inhibition, or a rising curve; inactive = flat fitted curve, though single readings scatter; no compound was filed as active;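 note: 0% = full activity with enzyme and -100% = basal without enzyme; dose as in the result columns while the protocol names 77 µM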
# Target sequence (P06280 whole entry, looked up): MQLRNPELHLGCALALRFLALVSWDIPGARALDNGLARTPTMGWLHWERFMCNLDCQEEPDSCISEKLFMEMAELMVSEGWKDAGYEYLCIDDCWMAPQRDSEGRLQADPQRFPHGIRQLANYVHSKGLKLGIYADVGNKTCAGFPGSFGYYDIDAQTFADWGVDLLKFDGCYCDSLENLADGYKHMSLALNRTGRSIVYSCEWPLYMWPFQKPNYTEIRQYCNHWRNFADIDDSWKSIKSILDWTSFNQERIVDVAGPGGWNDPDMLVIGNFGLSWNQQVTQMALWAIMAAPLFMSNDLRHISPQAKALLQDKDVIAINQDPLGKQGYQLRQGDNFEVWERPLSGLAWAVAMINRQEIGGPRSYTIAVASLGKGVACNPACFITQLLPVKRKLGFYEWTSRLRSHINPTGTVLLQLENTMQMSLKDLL
# Rango release inh = qHTS Assay for Inhibitors of RanGTP induced Rango (Ran-regulated importin-beta cargo) - Importin beta complex dissociation. Snurportin-1 (Homo sapiens) + GTP-binding nuclear protein Ran (Homo sapiens) + Importin …. Biochemical FRET Rango-importin beta, RanGTP-induced dissociation. Potency, µM (titrated, usually from 46.1 µM), for inactives: at the highest dose activity change, negative = inhibition. 340,000 tested, 0.071% active; active means falling FRET ratio curve, often poorly fitted, with flat reads before Ran was added; inconclusive means other falling curves, or compound fluorescence or quenching; inactive means flat or rising ratio curve;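 note: potency is the fitted concentration of half-maximal effect; % of control where 0% means no effect; nearly all actives have a fitted effect of over 45% in size; -100% = wells without RanGTP and RCC1; the record marks most hits as doubtful in a second field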
#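 Rango/importin beta premix (0.1/0.25 uM final), PBS + 1 mM DTT + 0.02% Tween-20 + 0.1% BSA; cpd 5 min RT; FRET pre-read; + RanGTP-RCC1 (0.6 uM Ran, 2 mM GTP, 0.2 uM RCC1); 45 min RT; FRET post-read, ex 430, em 486/530 nm.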
# Rango complex inh = qHTS Assay for Inhibitors of Rango (Ran-regulated importin-beta cargo) - Importin beta complex formation; Importin subunit beta-1 (Homo sapiens), Q14974; Rango CFP/YFP FRET sensor + importin beta, 45 min; Potency, µM (top dose mostly 92.2 µM), for the others: at the top dose inhibition of complex formation; AID 540263, 2011; 340,000 tested, 0.031% active; active = rising FRET ratio curve, often small or poorly fitted; inconclusive = mostly compound fluorescence or quenching in the first reads; inactive = flat curves in all reads;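 note: potency is the fitted concentration of half-maximal effect; 0% = DMSO wells and 100% = buffer wells lacking importin beta; nearly all actives have a fitted effect of over 15% in size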
#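 FRET biosensor (snurportin 1 IBB flanked by EYFP and cerulean), 50 nM, with compound 5 min, then 0.125 microM importin beta in PBS, 1 mM DTT, 0.02% Tween-20, 0.1% BSA. CFP/YFP ratio read after 45 min at room temperature; pre-read flags interference.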
# miR-21 reporter = qHTS Assay for Modulators of miRNAs and/orActivators of miR-21; HeLa miR-21 FLuc reporter, luciferase, 48 h; Potency, µM (highest dose often 38.3 µM), without a hit: at the top dose reporter change, positive = more light; 340,000 tested, under 10 active; active = well fitted rising curve with a large enough effect; inconclusive = small, poorly fitted or top-dose-only effect; inactive = no such curve, though single readings can be large or run the other way;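 note: % of control where 0% means no effect; miR-21 action dims this reporter so a rising signal means less miR-21 action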
#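 Compounds were titrated across several concentrations (up to approximately 40 uM) and incubated 48 hours with HeLa miR-21-FLuc reporter cells (miR-21 target sequence downstream of FLuc, endogenous miR-21). Readout was firefly luciferase luminescence after lytic detection reagent.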
# The depositor's hits bear a star; ? = inconclusive; . = not tested or not shown; & = joins results of further samples. Some of the compounds tested (hit frequency here may not be typical).
No.	mol	GLA inh pH 4.5	Rango release inh	Rango complex inh	miR-21 reporter
1	O=C(Nc1nccs1)C1CCCN1S(=O)(=O)c1ccc(F)cc1 (stereo not drawn)	-7	5%	-0.7%	-1%
2	CCOC(=O)/C(C#N)=N/Nc1ccccc1C#N	-9	0%	1.1%	-2%
3	Cc1cccc(NC(=O)C2CCCN(c3ncnc4c3nc3n4CCCCC3)C2)n1 (stereo not drawn)	.	1%	-1.5%	15%
4	COc1ccc(NC(=O)CSc2nnc(-c3ccncc3)n2CC2CCCO2)c(OC)c1 (stereo not drawn)	7	?	-4.3%	-9%
5	COc1ccc(CCNC(=O)CCC(=O)NC2CCCC(C)C2C)cc1OC (stereo not drawn)	.	42%	-4.2%	5%
6	CCC(C)[C@H]1CNCCN1CCc1cccc2ccccc12 (stereo partly drawn)	.	-15%	-3.6%	.
7	COc1ccc(OC)c(NC(=O)c2ccc(CN3CCOCC3)cc2)c1	4	0%	0.2%	-16%
8	C=CCNC(=O)c1ccc(N(Cc2ccc(Cl)cc2)S(C)(=O)=O)cc1	.	10%	-4.2%	3%
9	Cc1ccc2[nH]c(C(=O)NCCN3CCCC3)cc2c1	.	5%	?	-8%
10	COc1ccc(S(=O)(=O)NC(C)C(=O)NC2CC2)cc1C (stereo not drawn)	.	17%	-0.7%	-3%
11	COCCOc1ccc(C(F)(F)F)cc1NC(=O)c1ccccc1	4	1%	0.6%	-2%
12	NS(=O)(=O)c1ccc(CCNCc2cc(Cl)ccc2OCc2ccccc2)cc1	.	0%	5.0%	24%
13	COC(=O)c1n[nH]nc1-c1ccccc1	-4	1%	5.1%	-1%
14	O=c1cnc2ccccc2n1Cc1ccc(Br)cc1	.	1%	-5.0%	-9%
15	Cn1ccnc1Sc1nc(Nc2cccc(Cl)c2)nc(N2CCOCC2)n1	2	0%	-2.1%	-8%
16	COc1ccccc1OCCC(=O)Nc1cccc(S(=O)(=O)N2CCOCC2)c1	.	-17%	1.8%	.
17	COc1cc(OC)c(NC(=S)Nc2cccc(C(C)=O)c2)cc1Cl	-17	-12%	-5.0%	-7%
18	Cc1ccc(S(=O)(=O)N2CCCN(S(=O)(=O)c3ccccc3Br)CC2)cc1	.	1%	-3.5%	.
19	CCOC(=O)CSCC(=O)Nc1nnc(-c2cccc([N+](=O)[O-])c2)s1	-6	-14%	0.6%	-7%
20	O=C(CCS(=O)(=O)Cc1ccccc1)NCCc1ccccc1	-3	6%	0.7%	-3%
21	CCc1nc(SCC(=O)OC)c2c3c(sc2n1)COC(C)(C)C3	.	-4%	-2.3%	-7%
22	CC(=O)c1cccc(CN2CCN(CCC(C)C)C(CCO)C2)c1 (stereo not drawn)	-1	3%	0.4%	-1%
23	O=C(NC1CCCc2ccccc21)C1CCN(S(=O)(=O)c2cnc[nH]2)CC1 (stereo not drawn)	3	-12%	0.3%	0%
24	Cc1ccc(NS(=O)(=O)c2ccc(-c3ccc(=O)[nH]n3)o2)cc1N(C)C	.	-10%	2.0%	-10%
25	COC(=O)Cn1c(C)c(C#N)c2ccccc21	6	-17%	0.9%	-3%
26	COC(=O)c1cc(C(=O)c2c(C)cc3ccccn23)cc([N+](=O)[O-])c1	.	2%	0.3%	17%
27	COc1cc2c(cc1OC)C1(Nc3c-2c(C)nn3-c2ccccc2)C(=O)Nc2ccccc21 (stereo not drawn)	-9	-24%	?	-5%
28	O=C(O)CCSCC(=O)Nc1c(C(=O)C2CC2)oc2ccccc12	0	-4%	0.3%	-7%
29	Cc1ccc(-n2nc(C(N)=O)nc2-c2ccccc2)cc1	.	-16%	-2.1%	0%
30	CC(=O)O[C@@H]1[C@H](OC(=O)CC(C)C)c2c(ccc3ccc(=O)oc23)OC1(C)C	6	1%	-0.6%	-2%
31	Cc1ccc(/C=N/Nc2ccc(F)cc2)s1	.	-14%	0.2%	-23%
32	O=C(Cc1cccs1)N1CCN=C1SCc1cccc(F)c1	-23	9%	-2.4%	-8%
33	Cc1nn(C)cc1CN(C)C(=O)c1ccc(OC2CCN(Cc3ccccn3)CC2)cc1	.	-24%	?	7%
34	COc1cc(N)c(Cl)cc1C(=O)NC1CCN(Cc2ccccc2)CC1	-13&-11	13%	-0.1%	.
35	O=C(CCC(=O)c1cccs1)OCC(=O)c1ccc(Cl)s1	-5	4%	1.6%	-2%
36	N/C(=N\c1nc2ccccc2o1)NC(=O)c1cccc(Cl)c1	1	-1%	0.6%	-4%
37	CN(CC(=O)Nc1ccc(F)cc1[N+](=O)[O-])Cc1ccccc1	-4	-2%	8.0%	-12%
38	Cc1cc(C)c(S(=O)(=O)Nc2ccccc2C(=O)N2CCCC2)c(C)c1	.	-7%	2.1%	-5%
39	COc1ccc(N(CC(O)CN2CCOCC2)S(=O)(=O)c2ccccc2)cc1 (stereo not drawn)	.	-15%	-1.7%	1%
40	COc1ccc2[nH]c(O)c(N=NC(=O)c3ccc(NS(=O)(=O)c4cccs4)cc3)c2c1	.	-3%	-2.9%	.
41	O=C(Nc1cscc1S(=O)(=O)c1ccccc1)c1ccccc1Cl	-20	0%	-2.0%	-18%
42	CCOC(=O)N1CCN(C(=O)COC(=O)c2cc(Cl)cc(Cl)c2)CC1	.	-16%	-4.1%	.
43	O=c1[nH]c2cc(C(F)(F)F)ccc2n1-c1cc(C(F)(F)F)ccc1O	-4	-12%	1.0%	.
44	CCOC(=O)C1=C(O)/C(=C\c2sccc2C)N=C1C	7	-1%	-3.3%	-3%
45	CCOc1cc(/C=N\NC(=O)c2c(C)nc3ccccn23)ccc1O	.	-15%	-0.1%	-5%
46	Cc1ccc(S(=O)(=O)c2c[nH]c3ccc(Cl)cc3c2=O)cc1	.	-15%	-0.7%	-2%
47	CC(=O)Nc1ccc(N2C(C(C)=O)=NN(c3ccc(Cl)cc3)C2c2sccc2C)cc1 (stereo not drawn)	-25	?	?	-1%
48	COc1ccc(COCCN2CCN(S(=O)(=O)c3ccccc3)CCC2=O)cc1	7	-23%	2.8%	-3%
49	CC1=C(C#N)C(=O)NC(=O)/C1=C\c1ccc(-c2cc(C)c(C)cc2[N+](=O)[O-])o1	-9	0%	2.9%	-6%
50	CCCc1cc(=O)[nH]c(SCc2cccc(C)c2)n1	4	11%	-2.8%	-16%

# (more compounds)
No.	mol	GLA inh pH 4.5	Rango release inh	Rango complex inh	miR-21 reporter
51	COC(=O)c1c(C)c(OC(=O)c2c(C)cc(O)c(C=O)c2O)cc(C)c1O	.	?	?	.
52	COc1ccccc1CC(=O)NC1CCCCCC1	.	0%	-4.1%	-4%
53	COc1cc(CNc2ccc(N3CCCCC3)cc2)ccc1OCC(=O)NC(C)(C)C	.	18%	-2.1%	-7%
54	COc1ccc(-c2[nH]ncc2-c2ccc3c(c2)OCCO3)c(O)c1	-16	-8%	0.0%	28%
55	CCCOc1ccc2oc(=O)c3c(c2c1)CCCN3C(=O)CN(C)Cc1ccccc1	-15	2%	1.7%	4%
56	CN1CCN(NC(=O)c2ccc(COc3ccccc3Br)o2)CC1	0	1%	2.2%	-7%
57	Cc1nnc(SCC(=O)NC(C)c2ccccc2)[nH]c1=O (stereo not drawn)	-5	2%	-1.5%	-2%
58	Cc1ccc(NC(=O)C2CCN(S(=O)(=O)c3cccs3)CC2)c(O)c1	.	14%	?	10%
59	COc1ccc(CCNC(=O)Cc2nn(C)c(=O)c3ccccc23)cc1OC	3	31%	0.4%	2%
60	CCCc1nn(C)c(C(=O)Nc2ccc3ccccc3c2)c1Cl	2	-1%	-1.0%	-86%
61	Cc1ccc2nc(NC(=O)c3ccc(NS(=O)(=O)c4cccs4)cc3)sc2c1	-6	7%	-0.3%	-49%
62	CC1Cc2cc(S(=O)(=O)N3CCCC(C(=O)N4CCCCC4)C3)ccc2N1C(=O)C1CC1 (stereo not drawn)	.	11%	1.4%	-7%
63	COc1ccccc1N(CC(=O)NCc1ccccn1)S(C)(=O)=O	1	1%	-0.9%	-5%
64	Cc1n[nH]c(=O)c2c(NC(=O)CSc3nnc(C4CC4)n3C)oc(C)c12	.	18%	-0.1%	.
65	CC[C@@]12C(=O)N(c3cccc(Cl)c3)C(=O)N1[C@H](c1ccc(Br)cc1)[C@@H]1C(=O)N(C(C)(C)C)C(=O)[C@@H]12	.	-8%	-1.8%	.
66	COc1ccc(NC(=O)c2cccc(Oc3ccc([N+](=O)[O-])cc3Cl)c2)cc1	-13	20%	4.4%	20%
67	O=C(NNC(=O)c1cccc(Cl)c1)NNC(=O)c1cccc(Cl)c1	.	3%	-1.6%	.
68	Cc1ccc(NC(=O)c2noc3c2CCc2ccccc2-3)cc1	10	9%	-0.3%	-45%
69	CC(C)(CO)NC12CC3CC(CC(C3)C1)C2	1	-7%	5.4%	-2%
70	CNC(=O)c1cccc2nc3ccccc3nc12	-5	?	?	13%
71	CC(C)COc1ccc(C(=O)Nc2ccc(NC(=O)c3ccco3)cc2)cc1	.	-5%	-1.5%	-7%
72	C/C(=C\c1ccc(Br)cc1)C(=O)c1c(C)cc(C)[nH]c1=O	.	-6%	-0.3%	5%
73	Cc1ccn2c(NC(=O)c3cccs3)c(-c3ccccc3)nc2c1	2	-8%	-2.6%	-12%
74	CC(=O)N1N=C(c2ccccc2)CC1c1ccc2c(c1)OCO2 (stereo not drawn)	.	4%	-0.5%	-31%
75	Cc1cc(C)cc(NC(=O)Cn2ncn3c(cc4ccccc43)c2=O)c1	0	-10%	-2.0%	1%
76	Cc1ccccc1OCC(=O)Nc1ccccc1-c1ccccc1	-1	0%	1.4%	-24%
77	COc1ccc(Nc2cc(C)nc3ncnn23)c(OC)c1	-13	6%	1.0%	-18%
78	Nc1cc(=O)nc(SCC(=O)Nc2cccc3ccccc23)n1CCc1ccccc1	-21	-1%	-3.8%	0%
79	O=C(CSc1nnnn1Cc1ccccc1)N1CCN(c2ccccc2)CC1	0	5%	5.1%	-6%
80	Cn1c(/C(C#N)=N/O)nc2ccccc21	-1	0%	0.0%	-14%
81	COc1ccc(S(=O)(=O)n2oc(=O)cc2-c2ccccc2)cc1	-2	5%	-1.1%	-4%
82	CCOC(=O)CNC(=O)Cn1cnc2sc(C)c(S(=O)(=O)N3CCC(C)CC3)c2c1=O	5	1%	1.9%	-12%
83	C=CCc1cc(C=O)cc(OCC)c1OCc1ccc(Cl)cc1	-5	2%	1.5%	-7%
84	O=C1OC2(CCCCC2)OC(=O)C1=CNc1nc2ccccc2s1	-4	-7%	?	-19%
85	Cc1ccc(O)c(-c2cc3ccccc3[nH]2)c1	?	21%	-2.4%	-25%
86	CCCCc1c(O)c2ccccc2[nH]c1=O	14	-3%	0.6%	0%
87	CC(=O)Nc1ccc(NS(=O)(=O)c2cc(C)sc2C)cc1	1	11%	1.6%	-1%
88	CC(=O)c1ccc(OCc2cc(C(=O)N3CCCCCCC3)no2)cc1	.	-6%	1.0%	-12%
89	Cc1cccc(-c2nc3ccccc3c3nncn23)c1	4	-4%	-0.9%	-14%
90	COC(=O)c1sc2nc(C)nc(SCC(=O)N3CCC(C(=O)O)CC3)c2c1C	-4	-19%	-3.4%	2%
91	Cc1ccc(S(=O)(=O)N2CCC(C(=O)NCc3ccccc3Cl)CC2)cc1	8	0%	0.0%	-1%&-1%
92	COc1ccc(-c2nnc(C)c3nocc23)cc1	.	?	0.1%	-1%
93	Cn1c(SCC(=O)NCc2ccc3c(c2)OCO3)nnc1-c1cccs1	11	-6%	0.1%	-3%
94	CC(C)(C)NC(=O)Cn1c(SCC(=O)NC2CCCC2)nc2ccccc21	.	-7%	3.9%	0%
95	CCOC(=O)C1CCN(C(=O)COC(=O)c2oc3ccccc3c2C)CC1	.	21%	-0.7%	.
96	CCOC(=O)c1[nH]c2cc3c(cc2c1NC(=O)CN1CCCCC1C)OCO3 (stereo not drawn)	-7	.	.	-6%
